Sa growth inh – S. aureus growth inhibition | relative growth, % (concentration not given with the values) | AID 720641 | 170,000 tested, 0.53% active | S. aureus RN4220 growth, OD600, 20 h, 42 °C; stronger effect = lower value;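 active = growth at 42 °C up to 50% and 20 or more points under that at 30 °C, or under 10% at both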;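 also: 300 nL library stock went into each well; scaled to the means of positive and negative controls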
HCMV UL50-53 inh – cytomegalovirus nuclear egress complex inhibition. HTRF UL50-UL53 interaction, normalized percent inhibition. inhibition, % (concentration not given with the values). 190,000 tested, 0.15% active;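 active = both replicates at 50% or more, plus weaker picks with an unusually low signal ratio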;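 also: stock transfer was 100 nL into about 20 µL; 0% = negative control wells and 100% = wells with untagged competitor protein; inactives centre near -12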
GIV-Gai inh – blocks GIV peptide binding to rat Galpha-i3. P08753. Galpha-i3/FITC-GIV peptide fluorescence polarization, 90 min; stronger effect = lower value; scaled: aluminum fluoride 0%, vehicle 100%. percent of control (FP), % (concentration not given with the values). 210,000 tested, 0.42% active. AID 1224905;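 active = replicate mean at 85% of control or lower, very high polarization wells dropped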;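 also: wells of about 15 µL received 100 nL stock; the first replicate is given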
Target sequence (P08753 whole entry, looked up): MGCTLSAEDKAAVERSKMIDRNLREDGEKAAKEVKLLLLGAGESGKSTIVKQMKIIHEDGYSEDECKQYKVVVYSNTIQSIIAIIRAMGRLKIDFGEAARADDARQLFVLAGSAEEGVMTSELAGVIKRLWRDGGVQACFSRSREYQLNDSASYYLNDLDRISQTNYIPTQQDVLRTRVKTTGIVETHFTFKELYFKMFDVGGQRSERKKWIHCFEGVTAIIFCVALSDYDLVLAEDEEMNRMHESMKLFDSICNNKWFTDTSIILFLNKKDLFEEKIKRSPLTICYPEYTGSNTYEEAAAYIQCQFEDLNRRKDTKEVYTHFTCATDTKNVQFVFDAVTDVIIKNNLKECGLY
Sa growth inh second temp – also measured in Sa growth inh; calls as there; relative growth, %; measured here: growth at 30 °C;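 optical density after 20 h as mean of two plates; 100% = untreated growth and lower means inhibition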
An asterisk follows results filed as active; nt = not tested or not shown. Random draw from the library, and some 0.83% of all compounds hit somewhere here.

SMILES	Sa growth inh	Sa growth inh second temp	HCMV UL50-53 inh	GIV-Gai inh
COc1ccc(OC)c(NC(=O)c2cc(S(=O)(=O)NCCc3ccc(Cl)cc3)ccc2F)c1	111	85	nt	100
N#C/C(=N\Nc1ccc(S(=O)(=O)N2CCCCC2)cc1)C(N)=S	87	65	-30	nt
Cc1cc(=O)[nH]c(SCC(=O)Nc2cccc3ccccc23)c1C#N	116	72	-23	nt
NNC(=S)NC1CCCCCCCCCCC1	75	54	-34	99
Cc1ccc(CN(C)C(=S)NCc2ccccc2)o1	109	95	-20	nt
O=c1[nH]c2ccc(NCc3ccccc3OCc3ccc(F)cc3)cc2[nH]1	nt	nt	-9	102
O=S(=O)(Cc1ccccc1)N1CCC(c2nc(-c3cccs3)no2)CC1	112	67	-6	101
O=C(O)CNc1ccc(-n2ccnc2)nn1	88	94	-24	112
Nc1ccc(C(=O)N2CCOCC2)cc1	106	94	-22	nt
N/C(=N\OC(=O)N1CCOCC1)c1ccccc1	80	68	-28	99
COc1ccc(S(=O)(=O)Nc2cccc(-c3cn4c(C)cccc4n3)c2)cc1	nt	nt	-2	103
CCOC(=O)C1(C(=O)O)NC(=O)CC1c1ccccc1 (configuration not stated)	100	87	-15	98
O=C1C2CC=CCC2C(=O)N1c1ccc(-c2nc3ccc(N4C(=O)C5CC=CCC5C4=O)cc3[nH]2)cc1 (configuration not stated)	nt	nt	-15	104
CC1CCN(S(=O)(=O)c2nnc(NC(=O)c3ccc(F)cc3)s2)CC1	nt	nt	-19	108
O=C(COC(=O)c1cccc(NC(=O)c2ccc(Cl)cc2)c1)c1ccccc1	100	79	-41	nt
Cc1nnc2ccc(NN)nn12	81	86	-22	109
CC(C(=O)Nc1ccc2c(c1)OCO2)N(C)Cc1c(F)cccc1Cl (configuration not stated)	82	80	-30	nt
COCCn1c(=O)[nH]c2cc(C(=O)N3CCN(c4ccccc4)CC3)ccc2c1=O	96	92	-9	105
Cc1nc(N2CCOCC2)c2c(C)c(C(=O)N3CCN(Cc4ccccc4)CC3)sc2n1	nt	nt	-30	105
O=C(NCCc1ccccc1)c1cnc2sccn2c1=O	89	74	-37	102
C/C=N/N(c1ccccc1)c1ccccc1	46	10	-20	99
CCN1C(=O)N(C)C2C1N(C)C(=O)N2CC (configuration not stated)	109	76	-12	100
COc1ccc(CC(=O)NCc2ccc3c(c2)CCN3C(=O)c2cccc(C)c2)cc1	125	86	nt	105
O=S1(=O)C=CC(Nc2ccccc2Cl)C1 (configuration not stated)	105	96	-36	98
O=C(COC(=O)Cc1ccsc1)NCC1CCCCC1	97	90	-18	nt
CCOC(=O)c1c(C)[nH]c(C)c1C(=O)COC(=O)C1CC(=O)N(CCc2ccccc2)C1 (configuration not stated)	83	92	-9	nt
Cc1ccccc1-c1nn2c(=O)cc(N3CCN(C(=O)Nc4cccc(C)c4C)CC3)nc2s1	nt	nt	-27	98
COC(=O)c1cc2c(C(F)(F)F)cc(-c3ccccc3)nc2s1	106	77	-32	nt
Brc1c(Br)c(Br)c2[nH]cnc2c1Br	nt	nt	-4	108
CC1Cc2ccccc2N1C(=O)c1cc2sccc2n1Cc1ccc(F)cc1 (configuration not stated)	83	92	10	104
COc1cc(NC(=O)c2cc3n(n2)C(C(F)(F)F)CC(c2ccc(Br)cc2)N3)cc(OC)c1OC (configuration not stated)	nt	nt	-14	92
Cc1nn(-c2ccccc2)c(Cl)c1C(N)=O	100	80	-18	105
O=C(COC(=O)c1ccc(O)cc1)NC(c1ccccc1)c1ccccc1	102	90	-26	nt
COc1ccc(-c2cc3nccc(-c4cc(Cl)ccc4O)n3n2)cc1	nt	nt	6	110
Cc1cc(Cl)c(S(=O)(=O)N2CCSCC2)cc1OCC(N)=O	101	100	-11	104
O=C1C=CC(=O)N1c1ccc(Br)cc1	nt	nt	-9	105
COc1ccccc1CNS(=O)(=O)c1ccc2c(c1)CC(=O)N2C	98	109	nt	100
O=C(CN1CCCN(Cc2ccc(Cl)cc2)S1(=O)=O)Nc1ccccc1F	103	87	nt	100
CCc1ccc(NC(=O)C2CCN(c3nn4cc(-c5ccc(OC)cc5)nc4s3)CC2)cc1	94	98	nt	106
CC(C)(C)C(=O)CSc1ccc(Br)cc1	102	99	14	nt
O=c1c2c3c(sc2ncn1CCn1cnc2sc4c(c2c1=O)CCCC4)CCCC3	94	78	-10	106
O=C1N/C(=C/c2ccco2)C(=O)N1c1cccc(Cl)c1	110	98	-1	104
Oc1ccccc1N1CCN(CCOc2ccc(Cl)cc2Cl)CC1	100	92	7	nt
Cc1ccccc1S(=O)(=O)Nc1nc2ccccc2nc1NCCO	106	88	-13	nt
FC(F)(F)c1ccccc1CN1CCN(CC2CC3C=CC2C3)CC1 (configuration not stated)	78	87	0	nt
Cc1ccc(/C(O)=C2/C(=O)C(=O)N(CCCN3CCOCC3)C23C(=O)N(C)c2ccccc23)cc1F (configuration not stated)	98	105	nt	101
Cc1ccc(CCNC(=O)Cn2nc(C)c3c(C)n(-c4ccc(C)cc4)nc3c2=O)cc1	88	77	nt	101
CN1CCN(C(=O)c2cc(N3CCCCC3)ccc2N)CC1	97	94	3	107
O=C(/C=C/c1ccccc1)NCC1CCCO1 (configuration not stated)	106	103	-15	98
O=C(O)c1ccc(S(=O)(=O)Nc2ccc3oc4c(c3c2)C(=O)CCC4)cc1	100	86	nt	96

Additional structures.
SMILES	Sa growth inh	Sa growth inh second temp	HCMV UL50-53 inh	GIV-Gai inh
COc1ccc(-n2cc(C(=O)NCCc3c[nH]c4ccc(F)cc34)nn2)cc1	nt	nt	-7	101
Cc1cccc(Cn2nc(C)c3c(C)onc3c2=O)c1	nt	nt	0	115
Cc1cccc(C)c1NC(=O)CSc1nccn1C	104	88	-7	103
Cc1cnc(=O)[nH]c1SCc1ccc(Cl)cc1	82	92	-10	99
Sc1c(C=Nc2ccc(Br)cc2)sc2ccccc12	102	85	-61	nt
CCCCc1nc(-c2ccc(OCC)c(OC)c2)no1	97	103	-3	113
O=C(NN=C1CCCC1)c1ccccc1NS(=O)(=O)c1cccs1	73	84	-15	nt
COc1ccc(-n2c(O)c(/C=N/c3ncn[nH]3)c3ccccc3c2=O)cc1OC	95	94	-19	nt
Cc1ccc2c(CC(=O)NC(C)C)coc2c1C	85	93	-32	102
O=C(/C=C/c1ccc2ccccc2n1)NCC(F)(F)F	91	90	-24	nt
C=CCSC1=N/C(=C\C=C\c2ccco2)C(=O)S1	99	61	-7	140
COc1ccc(-c2nn3c(NC(C)C)cc(C)nc3c2C)cc1OC	nt	nt	-16	103
CCOC(=O)N1CCN(c2ccc(Cl)c(Cl)c2)CC1	94	85	7	104
Cc1cc(=O)n(CC(=O)NCc2ccc(OC(C)C)cc2)c2c1c(C)nn2-c1cccc(F)c1	78	90	nt	103
CCn1c(=O)cc(OCC(=O)Nc2ccccc2Cl)c2ccccc21	95	96	nt	108
COc1ccc(Br)cc1CNC(=O)C1CCN(c2nnc(-n3cccc3CNc3ccc(C)cc3)s2)CC1	98	106	-6	102
CCC(C)NC(=O)C1CC(=O)N(C2CCCCC2)C1 (configuration not stated)	112	87	4	100
COc1ccc(N=C(c2ccccc2)c2c(C)[nH]n(-c3ccccc3)c2=O)cc1	nt	nt	1	106
CCCOc1cccc(C(=O)Nc2cccc(C(=O)Nc3nccs3)c2)c1	94	79	-5	104
CCOC(=O)c1ccccc1NC(=O)CCc1nc(-c2ccc(OC)cc2)no1	83	90	2	104
O=C(Nc1ccc2ncccc2c1)c1ccccc1	121	97	-5	100
COc1cccc2c1Oc1ncccc1N(C(=O)CCC(=O)NCc1ccccc1Cl)C2	77	86	nt	102
CC(=O)N1c2ccc(S(=O)(=O)N3CCN(c4nc5ccccc5n5cccc45)CC3)cc2CC1C (configuration not stated)	nt	nt	-17	102
Cc1cc(C)cc(N(CC(=O)N2CC=C(c3ccccc3)CC2)S(=O)(=O)c2c(C)noc2C)c1	nt	nt	-6	109
CCC(=O)N1CCc2cc(S(=O)(=O)NC(Cc3ccccc3)C(=O)NCc3ccc(F)cc3)ccc21 (configuration not stated)	103	70	-28	106
O=C(Cn1c(C(=O)c2cccc(F)c2)nc2ccccc21)NCC1CCCO1 (configuration not stated)	nt	nt	-67	100
CS(=O)(=O)N1C(=O)CCC1=O	112	89	-10	100
CN(C(=O)CSc1ncn[nH]1)C1(C#N)CCCCC1	109	89	1	nt
O=C(CSCC(=O)Nc1ccccc1Oc1ccccc1)Nc1ccc2ccccc2c1	219	100	4	nt
COc1ccc(-c2c3c(=O)n(C)c(=O)n(C)c3c3c(-c4ccc(C)cc4)nc4ccccc4n23)cc1	95	95	-19	101
O=S1(=O)C[C@H](NCC2CCCO2)[C@@H](S(=O)(=O)c2ccc(F)cc2)C1 (some centres not stated)	nt	nt	-28	102
Cc1[nH]c2ccccc2c1/C=N/n1c(-c2cc3ccccc3o2)csc1=NC1CC1	96	92	-28	nt
COC(=O)c1sccc1S(=O)(=O)N(CC(=O)NCc1ccc(C)cc1)c1ccccc1	92	87	nt	105
CCc1nc2ccc(C(=O)N3CC(C)CC(C)C3)cc2nc1CC (configuration not stated)	94	80	-23	104
O=C(O)CC(=O)N1CCSc2ccccc21	91	85	-13	105
Cc1ccc(NC(=O)C2CC(=O)n3ncnc3N2)cc1C (configuration not stated)	109	95	7	103
Cc1cc(SCC(=O)Nc2ccc(C(F)(F)F)cc2)nc(=O)[nH]1	106	86	nt	102
CCOC(=O)c1c(C)oc2c1C1=NC(CC)CN1C=N2 (configuration not stated)	89	89	-25	103
COCn1cnc2ccccc21	97	91	-16	nt
CC1CCN(S(=O)(=O)c2ccc3c(c2)N(CC(=O)NCCCN2CCCC(C)C2)C(=O)CS3)CC1 (configuration not stated)	115	95	nt	108

A few values from the results shown.
CCc1nc2ccc(C(=O)N3CC(C)CC(C)C3)cc2nc1CC (configuration not stated) @ Sa growth inh second temp: 80
CC1CCN(S(=O)(=O)c2ccc3c(c2)N(CC(=O)NCCCN2CCCC(C)C2)C(=O)CS3)CC1 (configuration not stated) @ Sa growth inh: 115

Next records.
SMILES	Sa growth inh	Sa growth inh second temp	HCMV UL50-53 inh	GIV-Gai inh
COc1ccc(-c2cc3nc(C)c(CCC(=O)Nc4cccc(C(F)(F)F)c4)c(C)n3n2)c(OC)c1	113	89	-26	98
Cc1cc2ncn(Cc3nc(-c4cccc(Br)c4)no3)c2cc1C	84	84	-5	nt
CSc1nsc(SC)c1C(=O)NC(=O)N1CCOCC1	92	81	-16	101
O=C(c1ccco1)N1CCN(C(=O)c2oc(=O)c3ccccc3c2-c2ccccc2)CC1	104	92	0	94
O=C(NCc1cccs1)c1cnn2cc(Br)cnc12	95	100	-29	116
CCC(CO)NC(=O)c1ccccc1C(F)(F)F (configuration not stated)	93	91	-30	nt
OCc1ccc(OCc2cccs2)cc1	127	103	-15	110
Cc1ccc(-n2ncc3c(=O)[nH]c(SCC(=O)Nc4ccc5c(c4)OCO5)nc32)cc1C	82	77	-34	98
CCN(CC)S(=O)(=O)c1cccc(-c2nn(CN(CCC#N)Cc3cccnc3)c(=S)n2CC(C)C)c1	116	81	-31	nt
CCO/C=C1/C(=O)N(C)C(=O)c2ccccc21	114	100	95	nt
CCOC(=O)c1c(C)[nH]c(C(=O)N2CCC(CC(=O)NCc3ccccc3Cl)CC2)c1C	nt	nt	-15	105
CC(C)Oc1ccc(-c2nc3c(C#N)c[nH]n3c2NC2CCCCC2)cc1	98	84	6	102
CC(SCc1ccccc1)C(=O)Nc1ccccc1 (configuration not stated)	82	92	-7	102

Compounds from the list above containing a Cl atom:
SMILES	Sa growth inh	Sa growth inh second temp	HCMV UL50-53 inh	GIV-Gai inh
COc1ccc(OC)c(NC(=O)c2cc(S(=O)(=O)NCCc3ccc(Cl)cc3)ccc2F)c1	111	85	nt	100
O=C(COC(=O)c1cccc(NC(=O)c2ccc(Cl)cc2)c1)c1ccccc1	100	79	-41	nt
CC(C(=O)Nc1ccc2c(c1)OCO2)N(C)Cc1c(F)cccc1Cl (configuration not stated)	82	80	-30	nt
O=S1(=O)C=CC(Nc2ccccc2Cl)C1 (configuration not stated)	105	96	-36	98
Cc1nn(-c2ccccc2)c(Cl)c1C(N)=O	100	80	-18	105
COc1ccc(-c2cc3nccc(-c4cc(Cl)ccc4O)n3n2)cc1	nt	nt	6	110
Cc1cc(Cl)c(S(=O)(=O)N2CCSCC2)cc1OCC(N)=O	101	100	-11	104
O=C(CN1CCCN(Cc2ccc(Cl)cc2)S1(=O)=O)Nc1ccccc1F	103	87	nt	100
O=C1N/C(=C/c2ccco2)C(=O)N1c1cccc(Cl)c1	110	98	-1	104
Oc1ccccc1N1CCN(CCOc2ccc(Cl)cc2Cl)CC1	100	92	7	nt
Cc1cnc(=O)[nH]c1SCc1ccc(Cl)cc1	82	92	-10	99
CCOC(=O)N1CCN(c2ccc(Cl)c(Cl)c2)CC1	94	85	7	104
CCn1c(=O)cc(OCC(=O)Nc2ccccc2Cl)c2ccccc21	95	96	nt	108
COc1cccc2c1Oc1ncccc1N(C(=O)CCC(=O)NCc1ccccc1Cl)C2	77	86	nt	102
CCOC(=O)c1c(C)[nH]c(C(=O)N2CCC(CC(=O)NCc3ccccc3Cl)CC2)c1C	nt	nt	-15	105

High-throughput results as filed in PubChem BioAssay.
